Screens deposited in PubChem BioAssay by National Center for Advancing Translational Sciences (NCATS).
Menin MLL FP FL: qHTS Assay for Inhibitors Targeting the Menin-MLL Interaction in MLL Related Leukemias: Competition With Fluorescein Labeled MLL-derived Peptide; Fluorescence polarization, fluorescein-MLL peptide displacement from menin; 290,000 tested, under 10 active; FP activity change, % at 61.4 µM; inconclusive = falling polarisation curve, or a change in total fluorescence; inactive = total fluorescence flat and polarisation flat or rising; no compound was filed as active; the % refers to the polarisation; negative = inhibition;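 also: % of control where 0% means no effect; inhibitors lower the polarisation; unlabelled MLL peptide was the positive control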
TRPML1 blocker: qHTS for Inhibitors of the Human Mucolipin Transient Receptor Potential 1 (TRPML1). Mucolipin-1 (Homo sapiens), Q9GZU1. 390,000 compounds, 0.02% hits. TRPML1-inducible cells, Ca2+ dye fluorescence, FDSS; stronger effect = lower value; inhibition of EC80 agonist-evoked calcium signal. activity change, negative = inhibition, % (no concentration beside the values); in the data active means activity change below about -50%; inconclusive means about -30% to -50%; inactive means above about -30%;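 also: stimulus is agonist 54-4 at its EC80 concentration; % is scaled to controls: 0 for no effect and ±100 for the full control effect; compound concentration not given in the record; the text of the record puts the active cut at -80%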
Target sequence (Q9GZU1 whole entry, looked up): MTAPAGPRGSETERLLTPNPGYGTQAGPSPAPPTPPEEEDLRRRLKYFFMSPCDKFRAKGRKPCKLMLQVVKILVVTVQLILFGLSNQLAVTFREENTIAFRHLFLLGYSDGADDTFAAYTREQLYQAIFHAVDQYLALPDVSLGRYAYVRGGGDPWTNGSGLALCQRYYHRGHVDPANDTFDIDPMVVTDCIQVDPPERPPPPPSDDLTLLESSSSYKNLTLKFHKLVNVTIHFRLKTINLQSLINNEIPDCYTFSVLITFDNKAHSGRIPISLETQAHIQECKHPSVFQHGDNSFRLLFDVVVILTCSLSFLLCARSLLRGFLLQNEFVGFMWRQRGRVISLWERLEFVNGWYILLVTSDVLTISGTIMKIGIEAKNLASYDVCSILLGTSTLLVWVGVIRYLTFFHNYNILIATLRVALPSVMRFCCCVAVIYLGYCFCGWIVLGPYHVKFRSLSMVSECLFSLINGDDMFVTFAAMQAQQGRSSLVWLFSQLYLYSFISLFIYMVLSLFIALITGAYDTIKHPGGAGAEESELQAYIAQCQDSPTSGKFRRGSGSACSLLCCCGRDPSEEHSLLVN
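Calcium fluorescence in TRPML1-DL cells induced overnight with Tet: a 110 s read after compound pin addition, then a 110 s antagonist read after challenge with 54-4 at 4 uM final (EC80).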
Sfp PPTase inh: qHTS Assay for Inhibitors of Bacillus subtilis Sfp phosphopantetheinyl transferase (PPTase) | Potency, µM, for inactives: max response, negative = inhibition, hits mostly inhibitors | Biochemical Sfp PPTase activity, qHTS | AID 1490, 2009 | 4'-phosphopantetheinyl transferase ffp (Bacillus subtilis), Q9F4F7 | 310,000 compounds, 3.5% hits; active = well fitted inhibition curve with a large enough effect; inconclusive = small, poorly fitted or top-dose-only effect, or another doubt; inactive = no such curve, though single readings can be large or run the other way;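 also: the enzyme is Sfp with the accession as filed and its product quenches rhodamine fluorescence; potency is read from the fitted curve at half-maximal effect; 0% = enzyme reaction without inhibitor and -100% = no enzyme wells; top concentration of the series not given in the record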
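Fluorescence-quenching assay with 15 nM Sfp, 5 uM rhodamine-CoA and 12.5 uM BHQ-2-labelled ybbR peptide in pH 7.6 Hepes/MgCl2 buffer. Enzyme was pre-incubated with compound for 15 min at room temperature. Rate was taken from the 30-min fluorescence change (525/598 nm).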
TRPV1 potentiator: HTS Assay for Compounds that Act as Potentiators of the Vanilloid Receptor 1; TRPV1-expressing cells, Fluo-8 calcium influx, capsaicin EC20 potentiation; host cell line not named in the record; control for the full effect not named in the record; Transient receptor potential cation channel subfamily V member 1 (Homo sapiens), Q8NER1; potentiation, % at 8.33 µM; 320,000 compounds, 0.02% hits; active means potentiation above 80%; inconclusive means 30% to 80%; inactive means below 30%; also: 0% is about no effect
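Fluo-8 calcium influx in TRPV1-expressing cells, kinetic read (ex 480/em 520 nm). Compound added and read 3 min for agonist activity, followed by capsaicin at EC20 final and 2 min further read for enhancement.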
gsp agonist: qHTS for Agonist of gsp, the Etiologic Mutation Responsible for Fibrous Dysplasia/McCune-Albright Syndrome: qHTS; gsp mutant cells, cAMP HTRF, 30 min; control for the full effect not named in the record; Potency, µM (highest dose often 76.9 µM), for inactives: at the top dose activation (cAMP increase), hits mostly activators; 340,000 compounds, 0.13% hits; AID 624287, 2012; active = well fitted activation curve with a large enough effect; inconclusive = small, poorly fitted or top-dose-only effect, or another doubt; inactive = no such curve, though single readings can be large or run the other way; cell line not stated here;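 also: phosphodiesterase inhibitor Ro 20-1724 added with compounds to block cAMP breakdown; potency is read from the fitted curve at half-maximal effect; nearly all actives have a fitted effect of over 60% in size; about a fifth of the inactives were tested at one dose only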
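Cells stably selected in G418 were plated at 2000/well, grown 16-24 hr, then given compounds in DMSO with the PDE inhibitor […] (300 uM solution added) for 30 min at 37C; cAMP was read by HTRF.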
ClpP mod: qHTS Assay for Activators of ClpP; ATP-dependent Clp protease proteolytic subunit (Bacillus subtilis (strain 168)), P80244; purified B. subtilis ClpP, FRET peptide cleavage, 20 min; Potency, µM (top dose mostly 57.5 µM), inactives show at the top dose activity change, negative = active; 340,000 compounds, 1.9% hits; active = well fitted falling curve with a large enough effect; inconclusive = small, poorly fitted or top-dose-only effect; inactive = no such curve, though single readings can be large or run the other way; also: potency is read from the fitted curve at half-maximal effect; the source files actives as falling curves though it sought activators and does not explain the sign; nearly all actives have a fitted effect of over 65% in size; many hits overshoot -100%
Target sequence (P80244 whole entry, looked up): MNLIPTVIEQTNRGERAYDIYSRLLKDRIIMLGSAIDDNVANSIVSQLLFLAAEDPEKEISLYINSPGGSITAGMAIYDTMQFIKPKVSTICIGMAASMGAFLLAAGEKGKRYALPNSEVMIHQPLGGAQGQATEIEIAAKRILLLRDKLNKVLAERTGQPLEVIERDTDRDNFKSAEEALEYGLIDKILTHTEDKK
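Buffer: 100 mM Tris/HCl pH8, 100 mM KCl, 0.05% low protease BSA, 2.5% glycerol, 0.01% Tween-20. ClpP 10 microg/mL final; 20 min RT; delta FRET normalized to ADEP and DMSO controls.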
gsp antagonist: qHTS for Antagonists of gsp, the Etiologic Mutation Responsible for Fibrous Dysplasia/McCune-Albright Syndrome: qHTS; gsp-mutant cells, cAMP HTRF, 30 min; control for the full effect not named in the record; Potency, µM (top dose mostly 76.9 µM), for the others: top-dose activity change, negative = inhibition, most hits filed as inhibitors; AID 624288, 2012; 340,000 compounds, 0.4% hits; active = falling curve of any shape with a large fitted effect; inconclusive = falling curve, mostly with a smaller effect; inactive = flat or rising curve; cell line not stated here;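 also: intracellular cAMP measured with PDE inhibitor Ro 20-1724 present during compound exposure; potency is read from the fitted curve at half-maximal effect; % is scaled to controls: 0 for no effect and ±100 for the full control effect; nearly all actives have a fitted effect of over 65% in size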
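HTRF cAMP read-out (cAMP-d2 plus anti-cAMP antibody-K in lysis buffer, 30 min RT). Before lysis, cells are exposed to compounds with […] for 30 min at 37C in DPBS containing Ca/Mg, BSA and Tween 20.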
Starred values were filed as active, the others as inactive; ? = inconclusive; . = not tested or not shown; [ ] = remark or other dose.

SMILES | Menin MLL FP FL | TRPML1 blocker | Sfp PPTase inh | TRPV1 potentiator | gsp agonist | ClpP mod | gsp antagonist
Cc1c(C(=O)NC2CCN(Cc3ccccc3)C2)oc2ccc(Br)cc12 (stereo not drawn) | 0.1 | -1 | -1% | -2 | -7%[15.4 µM] | . | -15%
CCC1(C(=O)O)NC(c2cc(OC)ccc2O)C2C(=O)N(Cc3ccccc3)C(=O)C21 (stereo not drawn) | 3.5 | 24 | ? | -5 | -27% | 0.9% | 5%
O=C1CSC(c2ccc(F)cc2)N1c1c(F)cccc1F (stereo not drawn) | 0.9 | 13 | 4% | 3 | 18% | -2.5% | 2%
CC(C)CC(NC(=O)c1ccccc1NC(=O)c1ccccc1)C(=O)O (stereo not drawn) | -0.9 | -22 | 0% | -5 | -40%[inhibitor] | 0.0% | -9%
COc1ccc(N2C(=O)CC(n3c(CCCCO)nc4ccccc43)C2=O)cc1 (stereo not drawn) | 0.6 | 16 | -27% | 1 | 10% | -2.5% | -7%[15.4 µM]
Cc1ccc(NS(=O)(=O)c2ccc(OCC(=O)NCc3ccncc3)cc2)cc1 | -0.7 | -19 | 1% | -2 | -1% | 0.9% | 5%
O=C(NCCc1ccccc1)C(=O)NCC1OCCN1S(=O)(=O)c1cc(F)ccc1F (stereo not drawn) | -1.3 | 3 | 9% | 1 | -1% | -2.1% | 1%
C=CCOc1cccc(C2/C(=C(/O)c3ccc4c(c3)CC(C)O4)C(=O)C(=O)N2CCN2CCOCC2)c1 (stereo not drawn) | 0.1 | -11 | 6% | 1 | ? | . | 1%
COc1ccc([N+](=O)[O-])cc1NC(=O)C(C)OC(=O)c1ccccc1C(=O)c1ccc(Cl)cc1 (stereo not drawn) | 2.3 | 31 | -3% | ? | -45%[inhibitor] | -0.9% | 11%
O=C(NCc1ccc(F)cc1)c1cccnc1 | -0.4 | 9 | -1% | -13 | -5%[15.4 µM] | -0.8% | 8%
O=C(O)Cc1c(C(=O)O)nnn1-c1ccc(Cl)cc1Cl | -0.3 | 10 | 15% | 17 | -65%[inhibitor] | 1.6% | 10%
O=C(O)c1ccccc1SCc1nc2ccccn2c1Br | -0.5 | 1 | 8% | -1 | 3% | -7.8% | -2%
COC(=O)C1CCN(c2cc(=O)n(-c3ccccc3Cl)c(=O)[nH]2)CC1 | 4.3 | 13 | -17% | -8 | -33%[inhibitor] | 0.2% | 3%
COc1ccc(C2C=C3CNS(=O)(=O)C3CC2OC(=O)c2cccs2)cc1 (stereo not drawn) | 2.5 | -2 | -15% | . | . | . | .
CCOC(=O)C1=C(C)NC(=O)NC1c1ccc(Br)s1 (stereo not drawn) | -5.3 | -16 | 14% | 11 | 6% | -0.2% | 0%
Cc1cc(C)nc(Nc2nc3ccccc3[nH]2)n1 | 0.6 | 0 | -4% | -12 | 3% | 0.7% | 0%
C=CCn1c(COc2cccc3cccnc23)nnc1SCC(=O)O | ? | 8 | -11% | -4 | ? | 28µM* | 9%
O=Cc1ccc(C(=O)OCC(=O)Nc2ccc(F)cc2F)cc1 | 5.5 | 3 | 27% | -2 | -7%[15.4 µM] | . | 1%
S=c1[nH]nc(Cc2ccccc2)n1-c1cccc2ccccc12 | 1.3 | 1 | -10% | 0 | -3%[15.4 µM] | . | -4%
COc1ccc(C(=O)NCC(=O)OCC(=O)NC2CCCCCC2)cc1OC | . | 1 | . | . | -31%[inhibitor] | 0.3% | 6%
O=C(CN1C(=O)C(c2ccc(F)cc2)=NC12CCCC2)Nc1ccc(F)cc1 | -1.3 | 5 | 21% | -16 | -46%[inhibitor] | -2.3% | -11%
Cc1oc(-c2ccc(Cl)cc2)nc1CN1CCCC(C(=O)N2CCOCC2)C1 (stereo not drawn) | -2.8 | 11 | 5% | -4 | -33%[inhibitor] | -3.5% | 1%
COc1ccc(C(=O)/C=C/c2ccccc2OC)c(OC(=O)c2ccc([N+](=O)[O-])cc2)c1 | . | -2 | . | . | 13% | 0.9% | 4%
COC(=O)C1(C)NC(c2cccc(C)c2)C2C(=O)N(c3ccccc3)C(=O)C21 (stereo not drawn) | . | 4 | . | . | -32%[inhibitor] | -2.7% | .
COc1ccc(C2/C=C\CN(S(=O)(=O)CC34CCC(CC3=O)C4(C)C)CC(=O)N2Cc2ccc(F)cc2)cc1 (stereo not drawn) | 4.3 | -1 | 11% | . | . | . | .
CC(C)c1cccc(C(C)C)c1NC(=O)COC(=O)C1=COCCO1 | 1.6 | 12 | 19% | 0 | -3%[15.4 µM] | . | 4%
CCCn1c(=O)c2ccccc2n2c(SCCOc3ccccc3F)nnc12 | 0.1 | 24 | ? | 1 | -7% | -4.9% | -5%
COc1ccc(Cc2nnc(NC(=O)c3ccc(OC)cc3OC)s2)cc1 | 5.9 | -9 | -1% | ? | -2% | -7.3% | 0%
CN(C)CCNC(=O)c1cc2cc(Br)ccc2oc1=O | 3.6 | -18 | 13% | 0 | ? | -2.2% | -4%
O=C1NCCCN1C1OC(CO)C(O)C1O (stereo not drawn) | . | 1 | . | . | -87%[inhibitor] | -0.2% | .
COc1ccc(NC(=O)CCCOc2ccc(Cl)c(C)c2)cc1S(=O)(=O)N1CCOCC1 | . | 4 | . | . | -56% | 1.1% | ?
COc1ccccc1Nc1nc(NCCO)c2ccccc2n1 | -1.2 | . | -2% | -6 | . | . | .
O=[N+]([O-])c1ccccc1S(=O)(=O)Nc1ccc(-c2ccc3nncn3n2)cc1 | . | -19 | . | 16 | 3%[15.4 µM] | 4.2% | 2%
S=c1[nH]nc2sc3ccccc3n12 | . | 3 | . | . | . | 0.6% | -11%
OCC[C@@H]1C[C@H](O)[C@@H](O)[C@@]2(Cc3ccccc3CO2)O1 | -0.1 | -13 | 20% | 24 | -17% | -0.9% | 3%
O=C(CCc1nnc(-c2ccc(-c3ccccc3)cc2)o1)N1CCCCC1 | 1.1 | -1 | 7% | -3 | 6% | . | -20%
CCC(=O)N1C(C(=O)NCc2ccc(OC)cc2)CSC1c1ccc(OC)cc1 (stereo not drawn) | -1.2 | 6 | 21% | -11 | -2% | 1.3% | 3%
CCOc1ccc(-c2nnn(CC(=O)N3CCN(c4ccc(OC)cc4)CC3)n2)cc1OCC | 0.8 | 17 | 20% | 4 | 2% | -1.5% | 1%
O=C(Nc1nc(N2C(=O)c3ccccc3C2=O)n(-c2ccccc2)n1)c1ccccc1 | 4.9 | 15 | 0.89µM* | 1 | -5% | 0.2% | -4%
CCOC(=O)c1ccc(NS(=O)(=O)c2cc(-c3nnnn3C(C)C)ccc2OC)cc1 | 0.1 | -21 | -18% | 0 | -6% | 1.5% | -16%
Cc1c(NC(=O)C(C)OC(=O)CCOc2ccccc2)c(=O)n(-c2ccccc2)n1C (stereo not drawn) | . | 17 | . | ? | 15%[15.4 µM] | -0.9% | 2%
CN(C)C(CNS(=O)(=O)c1ccc2ccccc2c1)c1ccccc1 (stereo not drawn) | 4.1 | -7 | -8% | -4 | 0% | -2.5% | 4%
O=C(Nc1ccc(Cl)cc1)c1cccc(NC2=NC3CS(=O)(=O)CC3S2)c1 (stereo not drawn) | 4.3 | -4 | 7% | -4 | 17% | -1.0% | 5%
CC1(C)Cc2c(c(N3CCOCC3)nc3sc4c(N5CCOCC5)nnnc4c23)CS1 | 0.4 | . | 6% | -6 | . | . | .
CS/C(=C\[N+](=O)[O-])Nc1ccc(C)cc1 | 4.6 | -6 | -20% | -16 | -8%[15.4 µM] | . | 1%
CCCNC(=O)CSc1nnc(-c2ccccc2Br)n1-c1cccc(C(F)(F)F)c1 | ? | 6 | -6% | 24 | 11%[15.4 µM] | . | -9%
CC(=O)N1CCN(c2ccc([N+](=O)[O-])cc2)CC1 | 0.5 | -5 | 1% | 6 | 1% | . | 1%
COC(=O)C1(C)NC(c2ccc(OC)cc2)C2C(=O)N(c3ccccc3)C(=O)C21 (stereo not drawn) | -12 | 8 | 9% | -1 | 15% | -1.0% | 0%
Cc1ccc2c(CN3CCN(S(=O)(=O)c4ccc(Cl)cc4)CC3)cc(=O)oc2c1C | . | -1 | . | -6 | -2% | 14µM* | -31%
O=C1CC(N2CCN(C/C=C/c3ccccc3)CC2)C(=O)N1CCc1ccccc1 (stereo not drawn) | 1.6 | -3 | 13% | -2 | 6% | -0.7% | ?
Cc1cc(C)cc(OCC(O)CN2C(=O)NC(C)(C)C2=O)c1 (stereo not drawn) | -4.1 | 5 | -1% | 8 | -37%[inhibitor] | 0.1% | 6%
Cc1ccc(C(=O)Nc2cccnc2Cl)cc1Cl | -6.5 | -7 | 4% | -20 | 7%[15.4 µM] | -0.3% | -11%
CCCNC(=O)C1CC(c2ccc(C(F)(F)F)cc2)=NO1 (stereo not drawn) | 3.2 | -4 | 10% | 17 | ? | -1.1% | 7%
Cc1cc(NC(=O)CSc2ncnc3ccccc23)no1 | -0.8 | -7 | 9% | -8 | ? | -5.3% | -17%
c1ccc(Nc2nc3ccccc3n3cnnc23)cc1 | 12 | -3 | 4% | -4 | -1% | -26% | 4%
COc1ccc(S(=O)(=O)N2CCC(C(=O)Oc3cccc(C)c3)CC2)cc1OC | . | 40 | -1% | 12 | ? | -1.6% | ?
